# Compound activity: PubChem BioAssay, Broad Institute
# Env fusion inh: inhibitors of HIV-1 Env-driven cell-cell fusion, primary screen, HeLa-JRFL effector, CEM21 target cells, luciferase; inhibition, % at 12.3 µM; 360,000 tested, 1.1% active; AID 651610, 2012;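 active = mean replicate inhibition score of at least 50 and every replicate individually at or above 50; inconclusive = only one of the two criteria met; inactive = mean below 50 and not all replicates reaching 50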;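 note: 0% = plate neutral controls and 100% = maraviroc near 300 nM; one replicate is shown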
# UUG fidelity: modulators of yeast start codon fidelity, primary screen, whole organism, S. cerevisiae, single point, plate reader | 350,000 tested, 0.13% active | activity score, % at 18.7 µM | S. cerevisiae UUG-firefly luciferase reporter, luminescence/redox ratio;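 active = replicate mean at a twofold rise or more, about +100% in these data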;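 note: firefly luciferase made from a UUG start codon reports start codon fidelity; reporter light over untreated wells divided by growth signal over untreated wells; some hits fall short of that in this replicate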
# Starred values were filed as active, the others as inactive; ? = inconclusive; [ ] = remark or other dose. A portion of the library. The share of hits here may be higher or lower than overall.
UUG fidelity,Env fusion inh,smiles
2.7,-5.8[16.7 µM],COCC(=O)Nc1ccc2c(c1)C(=O)N(C)[C@@H]1CC[C@H](CC(=O)NCC3CC3)O[C@H]1CO2
9.7,-5.9[16.7 µM],COc1ccc(S(=O)(=O)Nc2ccc3c(c2)C(=O)N([C@@H](C)CO)C[C@H](C)[C@H](CN(C)Cc2ccccc2)OCCCC[C@H](C)O3)cc1
-8.0,-0.1[16.7 µM],COc1ccc(CN(C)C[C@@H]2OCCCC[C@H](C)Oc3ccc(NC(=O)c4ccccc4)cc3C(=O)N([C@@H](C)CO)C[C@@H]2C)cc1
-3.8,45.5[16.7 µM],C[C@@H]1CN([C@H](C)CO)S(=O)(=O)c2ccc(-c3ccc(F)cc3)cc2O[C@H]1CN(C)Cc1cccc(F)c1
-14.1,-7.4[16.7 µM],CNC[C@@H]1Oc2c(cccc2N(C)C)C(=O)N([C@H](C)CO)C[C@H]1C
15.5,-4.4[16.7 µM],C[C@@H]1CN([C@@H](C)CO)C(=O)c2cc(N(C)C)ccc2O[C@@H](C)CCCCO[C@@H]1CN(C)Cc1ccccc1
-6.5,-10.3[16.7 µM],Cc1cc(C(=O)Nc2cccc3c2O[C@@H](CN(C)Cc2ccc(Oc4ccccc4)cc2)[C@@H](C)CN([C@H](C)CO)C3=O)n(C)n1
2.1,5.6[16.7 µM],C[C@@H]1CN([C@@H](C)CO)C(=O)c2cc(NC(=O)c3ccncc3)ccc2O[C@@H](C)CCCCO[C@H]1CN(C)Cc1ccc(C(=O)O)cc1
17.3,-16.1[16.7 µM],Cc1noc(C)c1S(=O)(=O)Nc1ccc2c(c1)C(=O)N([C@@H](C)CO)C[C@@H](C)[C@H](CN(C)C(=O)C1CCCCC1)OCCCC[C@@H](C)O2
32.1,?,C[C@H](CO)N1C[C@H](C)[C@H](CN(C)S(=O)(=O)c2ccc(F)cc2)Oc2ccc(NS(=O)(=O)c3ccc(Cl)cc3)cc2C1=O
-2.1,21.4[16.7 µM],CNC(=O)C[C@@H]1CC[C@H]2[C@@H](COc3ccc(NC(=O)c4ccccc4OC)cc3C(=O)N2C)O1
17.4,-34.5[16.7 µM],C[C@H]1CCCCO[C@@H](CN(C)C(=O)NC2CCCCC2)[C@@H](C)CN([C@@H](C)CO)C(=O)c2cc(N(C)C)ccc2O1
-3.7,0.8[16.7 µM],CC(C)C#Cc1ccc2c(c1)O[C@@H](CN(C)Cc1cncnc1)[C@H](C)CN([C@@H](C)CO)S2(=O)=O
12.3,-5.2[16.7 µM],C[C@@H]1CN([C@@H](C)CO)C(=O)c2cc(NC(=O)CCCN(C)C)ccc2O[C@@H](C)CCCCO[C@H]1CN(C)Cc1ccc(C(F)(F)F)cc1
-7.1,0.8[16.7 µM],CC(C)CC#Cc1ccc2c(c1)O[C@@H](CN(C)C(=O)c1cccnc1)[C@@H](C)CN([C@H](C)CO)S2(=O)=O
1.4,-2.3[16.7 µM],C[C@H]1CN([C@@H](C)CO)C(=O)Cc2cc(NC(=O)Cc3cn(C)c4ccccc34)ccc2O[C@@H]1CN(C)CC1CC1
18.2,7.5[16.7 µM],Cc1noc(C)c1NC(=O)Nc1ccc2c(c1)CC(=O)N([C@H](C)CO)C[C@@H](C)[C@@H](CN(C)C(=O)Nc1ccc(F)cc1)O2
-5.7,-3.8[16.7 µM],C[C@@H]1CN([C@@H](C)CO)C(=O)c2cc(NS(=O)(=O)c3ccccc3)ccc2O[C@@H]1CN(C)C(=O)Nc1ccccc1
-3.9,-4.3,Cn1cc(-c2coc3c(C(=O)Nc4ccccc4)cccc23)cn1
-8.3,-8.0[16.7 µM],C[C@@H]1CCCCO[C@@H](CN(C)Cc2ccc3c(c2)OCO3)[C@@H](C)CN([C@@H](C)CO)C(=O)c2cc(NC(=O)Nc3ccc4c(c3)OCO4)ccc2O1
-11.6,-4.1[16.7 µM],C[C@@H]1CN([C@@H](C)CO)C(=O)c2cc(Br)cnc2O[C@@H]1CN(C)C(=O)c1ccccc1F
15.8,-49.4[16.7 µM],C[C@@H]1CN([C@H](C)CO)C(=O)c2cccc(NC(=O)Nc3ccc(C(F)(F)F)cc3)c2O[C@H]1CN(C)S(=O)(=O)c1ccc(F)cc1
11.0,4.6[16.7 µM],Cc1ccc(S(=O)(=O)N(C)C[C@@H]2Oc3ccc(NS(=O)(=O)c4cccs4)cc3C(=O)N([C@H](C)CO)C[C@H]2C)cc1
7.4,-5.7[16.7 µM],CO[C@@H]1CN(C)C(=O)c2ccc(NC(=O)Cc3ccccc3)cc2OC[C@H](C)N(CC2CC2)C[C@@H]1C
3.0,2.8[16.7 µM],C[C@@H]1CCCCO[C@@H](CN(C)S(=O)(=O)c2cccs2)[C@@H](C)CN([C@@H](C)CO)C(=O)c2cc(NC(=O)Nc3ccc(C(F)(F)F)cc3)ccc2O1
-7.2,9.0[16.7 µM],C[C@@H]1CN([C@H](C)CO)C(=O)Cc2cc(NC(=O)Nc3ccc(C(F)(F)F)cc3)ccc2O[C@@H]1CN(C)S(=O)(=O)c1cn(C)cn1
-0.8,-21.1[16.7 µM],Cc1noc(C)c1NC(=O)Nc1cccc2c1O[C@@H](CN(C)CC1CCCCC1)[C@@H](C)CN([C@@H](C)CO)C2=O
-8.2,37.6[16.7 µM],O=C(C[C@H]1C[C@H]2c3cc(NC(=O)C4CCC4)ccc3O[C@H]2[C@H](CO)O1)NCc1ccc(-c2ccccc2)cc1
35.6,-35.1[16.7 µM],Cc1ccccc1S(=O)(=O)N1C[C@@H](O)COC[C@@H]2O[C@@H](CC(=O)NCc3ccccc3Cl)CC[C@H]21
2.7,15.4[16.7 µM],O=C(Nc1ccc(F)cc1)N[C@H]1CC[C@@H](CCn2cc(-c3ccc(F)cc3)nn2)O[C@H]1CO
11.6,-28.3[16.7 µM],C[C@@H]1CCCCO[C@@H](CN(C)C(=O)c2ccccc2)[C@H](C)CN([C@@H](C)CO)C(=O)c2cc(N(C)C)ccc2O1
7.9,19.1[16.7 µM],C[C@@H]1CN([C@@H](C)CO)C(=O)c2cccc(NC(=O)c3cnccn3)c2O[C@@H]1CN(C)Cc1ccccc1
11.9,25.9[16.7 µM],CNC[C@@H]1OCCCC[C@H](C)Oc2ccc(NC(=O)Nc3ccc4c(c3)OCO4)cc2C(=O)N([C@H](C)CO)C[C@@H]1C
11.5,9.7[16.7 µM],CC(C)NC(=O)Nc1ccc2c(c1)C(=O)N([C@@H](C)CO)C[C@H](C)[C@H](CN(C)C(=O)Nc1ccc3c(c1)OCO3)O2
-2.7,-34.3[16.7 µM],C[C@@H]1CN([C@@H](C)CO)C(=O)c2cc(C#Cc3cccc(F)c3)cnc2O[C@@H]1CN(C)C(=O)C1CC1
2.2,3.5[16.7 µM],CC(C)c1cn(CC[C@@H]2CC[C@H](NS(=O)(=O)c3ccc(Cl)cc3)[C@H](CO)O2)nn1
2.9,-3.9[16.7 µM],CC(C)NC(=O)N[C@H]1CC[C@@H](CC(=O)N2CCCCC2)O[C@@H]1CO
-2.3,-11.4[16.7 µM],CO[C@H]1CN(C)C(=O)c2ccc(NS(C)(=O)=O)cc2OC[C@@H](C)N(Cc2ccccc2)C[C@H]1C
11.4,-0.8[16.7 µM],N#C[C@H]1[C@H](c2ccc(-c3ccccc3F)cc2)[C@H](CO)N1C(=O)c1ccccn1
-2.6,-4.0[16.7 µM],CC(C)NC(=O)Nc1ccc2c(c1)CC(=O)N([C@@H](C)CO)C[C@H](C)[C@@H](CN(C)Cc1ccc(-c3ccccc3)cc1)O2
-5.5,13.4[16.7 µM],O=S(=O)(N[C@@H]1CC[C@@H](CCn2cc(C3(O)CCCC3)nn2)O[C@@H]1CO)c1ccccc1
-6.0,-5.4[16.7 µM],C[C@@H]1CN([C@@H](C)CO)C(=O)Cc2cc(NC(=O)c3ccncc3)ccc2O[C@@H]1CN(C)Cc1ccc2c(c1)OCO2
-6.7,-8.4[16.7 µM],C[C@@H]1CN([C@H](C)CO)C(=O)c2cc(NC(=O)CCC(F)(F)F)ccc2O[C@H]1CN(C)S(C)(=O)=O
4.3,-7.4[16.7 µM],O=C(Nc1ccc(C(F)(F)F)cc1)N[C@@H]1CC[C@@H](CC(=O)N2CCCCC2)O[C@H]1CO
-11.5,18.4[16.7 µM],Cc1ccc(S(=O)(=O)N(C)C[C@@H]2Oc3c(NS(=O)(=O)c4ccccc4)cccc3C(=O)N([C@H](C)CO)C[C@H]2C)cc1
-17.7,-33.6[16.7 µM],O=C(N[C@H]1CC[C@@H](CCn2cc(Cc3ccccc3)nn2)O[C@@H]1CO)c1ccccn1
0.0,1.3[16.7 µM],COc1ccc(NC(=O)N[C@H]2C=C[C@@H](CC(=O)NC3CCCCC3)O[C@@H]2CO)cc1
-1.6,?,O=C(C[C@@H]1C=C[C@H](NC(=O)c2cccc(F)c2)[C@H](CO)O1)NCc1ccccc1
9.4,7.2[16.7 µM],CCCNC(=O)C[C@@H]1CC[C@H]2[C@H](COc3ccc(NC(=O)Cc4ccccc4)cc3C(=O)N2C)O1
-4.9,13.8[16.7 µM],C[C@H]1CN([C@@H](C)CO)C(=O)Cc2cc(NS(=O)(=O)c3ccc(Cl)cc3)ccc2O[C@H]1CN(C)S(C)(=O)=O
-12.3,-37.0[16.7 µM],Cc1noc(C)c1S(=O)(=O)N(C)C[C@@H]1OCCCC[C@H](C)Oc2ccc(NS(=O)(=O)c3ccc(Cl)cc3)cc2C(=O)N([C@H](C)CO)C[C@@H]1C
-6.6,10.5[16.7 µM],Cc1noc(C)c1S(=O)(=O)Nc1ccc2c(c1)C(=O)N([C@H](C)CO)C[C@H](C)[C@@H](CN(C)S(=O)(=O)c1ccc(Cl)cc1)OCCCC[C@@H](C)O2
-1.9,-10.6[16.7 µM],C/C=C/c1cnc2c(c1)C(=O)N([C@@H](C)CO)C[C@H](C)[C@H](CN(C)C(=O)Nc1cccc(OC)c1)O2
0.9,-3.0[16.7 µM],C[C@@H]1CN([C@H](C)CO)S(=O)(=O)c2ccc(-c3cncnc3)cc2O[C@@H]1CN(C)Cc1ccccn1
-11.4,7.3[16.7 µM],COc1ccc(CNC(=O)C[C@H]2C=C[C@H](NC(=O)Nc3ccc4c(c3)OCO4)[C@H](CO)O2)cc1
-12.0,-10.5[16.7 µM],C[C@H](CO)N1C[C@H](C)[C@H](CN(C)Cc2ccncc2)Oc2ccc(NC(=O)CCCN(C)C)cc2C1=O
-7.6,-70.4[16.7 µM],C[C@H](CO)N1C[C@H](C)[C@H](CN(C)Cc2ccc(C(=O)Nc3ccccc3N)cc2)Oc2ccc(NC(=O)Nc3ccc4c(c3)OCO4)cc2CC1=O
10.5,6.1[16.7 µM],CCCNC(=O)C[C@H]1CC[C@H]2[C@H](COc3ccc(NC(=O)c4cc(F)cc(F)c4)cc3C(=O)N2C)O1
16.6,6.4[16.7 µM],CC(C)NC(=O)Nc1ccc2c(c1)C(=O)N([C@@H](C)CO)C[C@H](C)[C@H](CN(C)S(=O)(=O)c1ccccc1)OCCCC[C@@H](C)O2
-12.6,27.9[16.7 µM],CCCNC(=O)[C@@H]1c2ccccc2C(=O)N(CC23CC4CC(CC(C4)C2)C3)[C@H]1c1ccc(CO)cc1

# Copied from the list:
# Cc1ccc(S(=O)(=O)N(C)C[C@@H]2Oc3c(NS(=O)(=O)c4ccccc4)cccc3C(=O)N([C@H](C)CO)C[C@H]2C)cc1 in Env fusion inh: 18.4[16.7 µM]
# C[C@H](CO)N1C[C@H](C)[C@H](CN(C)Cc2ccncc2)Oc2ccc(NC(=O)CCCN(C)C)cc2C1=O in UUG fidelity: -12.0
# CCCNC(=O)[C@@H]1c2ccccc2C(=O)N(CC23CC4CC(CC(C4)C2)C3)[C@H]1c1ccc(CO)cc1 in Env fusion inh: 27.9[16.7 µM]
# COc1ccc(S(=O)(=O)Nc2ccc3c(c2)C(=O)N([C@@H](C)CO)C[C@H](C)[C@H](CN(C)Cc2ccccc2)OCCCC[C@H](C)O3)cc1 in UUG fidelity: 9.7

# Arranged by formula weight (descending): some entries from above.
UUG fidelity,Env fusion inh,smiles
-7.6,-70.4[16.7 µM],C[C@H](CO)N1C[C@H](C)[C@H](CN(C)Cc2ccc(C(=O)Nc3ccccc3N)cc2)Oc2ccc(NC(=O)Nc3ccc4c(c3)OCO4)cc2CC1=O
-11.4,7.3[16.7 µM],COc1ccc(CNC(=O)C[C@H]2C=C[C@H](NC(=O)Nc3ccc4c(c3)OCO4)[C@H](CO)O2)cc1
-17.7,-33.6[16.7 µM],O=C(N[C@H]1CC[C@@H](CCn2cc(Cc3ccccc3)nn2)O[C@@H]1CO)c1ccccn1

# Other compounds follow.
UUG fidelity,Env fusion inh,smiles
40.2,-12.8[16.7 µM],C[C@@H]1CN([C@@H](C)CO)C(=O)c2cc(C#C[C@@H](C)O)cnc2O[C@H]1CN(C)Cc1cncnc1
-7.3,-3.3[16.7 µM],C[C@H]1CN([C@@H](C)CO)C(=O)c2cc(C#Cc3ccncc3)cnc2O[C@H]1CN(C)C(=O)c1ccccc1F
0.6,-25.0[16.7 µM],C[C@@H]1CN([C@@H](C)CO)C(=O)c2cc(C#Cc3cccc(F)c3)cnc2O[C@@H]1CN(C)C(=O)C1CCC1
-5.4,-7.4[16.7 µM],C[C@H]1CN([C@@H](C)CO)C(=O)c2cccc(NS(=O)(=O)c3cn(C)cn3)c2O[C@H]1CN(C)Cc1ccc(C(F)(F)F)cc1
34.4,-0.7[16.7 µM],CCCN(C)C[C@H]1OCCCC[C@H](C)Oc2ccc(NC(=O)C3CCCCC3)cc2C(=O)N([C@@H](C)CO)C[C@H]1C
5.0,-2.2[16.7 µM],Cc1ccc(-c2ccc3c(c2)O[C@@H](CN(C)C(=O)Nc2ccccc2)[C@H](C)CN([C@@H](C)CO)S3(=O)=O)cc1
21.9,-41.7[16.7 µM],C[C@H](CO)N1C[C@H](C)[C@@H](CN(C)Cc2ccc3c(c2)OCO3)OCCCC[C@H](C)Oc2ccc(NC(=O)C3CCCCC3)cc2C1=O
16.3,33.5[16.7 µM],C[C@@H]1CCCCO[C@H](CN(C)S(=O)(=O)c2ccccc2)[C@H](C)CN([C@H](C)CO)C(=O)c2cc(NC(=O)C3CCCCC3)ccc2O1
